Screening results as filed in PubChem.
GIV-Gai inh – inhibitors of GIV GBA-motif binding to rat Galpha-i3; Galpha-i3/FITC-GIV peptide fluorescence polarization, 90 min; active compounds read low; scaled: aluminum fluoride 0%, vehicle 100%; percent of control (FP), % (concentration not given with the values); hit rate 0.42% among 210,000; AID 1224905;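 active = replicate mean at 85% of control or lower, very high polarization wells dropped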;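 note: wells of about 15 µL received 100 nL stock; the first replicate is given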
Target sequence (P08753 whole entry, looked up): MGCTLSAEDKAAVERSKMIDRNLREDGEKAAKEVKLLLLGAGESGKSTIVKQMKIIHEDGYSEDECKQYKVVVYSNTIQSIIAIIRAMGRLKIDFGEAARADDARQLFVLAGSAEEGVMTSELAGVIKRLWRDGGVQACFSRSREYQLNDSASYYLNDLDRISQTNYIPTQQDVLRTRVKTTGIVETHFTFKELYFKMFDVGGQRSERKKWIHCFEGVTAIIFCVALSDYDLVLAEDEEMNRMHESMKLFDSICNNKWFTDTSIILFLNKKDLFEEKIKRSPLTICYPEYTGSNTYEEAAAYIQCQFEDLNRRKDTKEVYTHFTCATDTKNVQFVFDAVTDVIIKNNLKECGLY
HCMV NEC inh – inhibitors of HCMV UL50-UL53 nuclear egress complex interaction. HTRF UL50-UL53 interaction, normalized percent inhibition. inhibition, % (concentration not given with the values). hit rate 0.15% among 190,000;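 active = both replicates at 50% or more, plus weaker picks with an unusually low signal ratio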;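 note: stock transfer was 100 nL into about 20 µL; 0% = negative control wells and 100% = wells with untagged competitor protein; inactives centre near -12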
Sa growth inh – S. aureus growth inhibition. S. aureus RN4220 growth, OD600, 20 h, 42 °C; active compounds read low. relative growth, % (concentration not given with the values). hit rate 0.53% among 170,000. AID 720641;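 active = growth at 42 °C up to 50% and 20 or more points under that at 30 °C, or under 10% at both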;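 note: 300 nL library stock went into each well; scaled to the means of positive and negative controls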
Sa growth inh second temp – also measured in Sa growth inh; calls as there; relative growth, %; measured here: growth at 30 °C;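 optical density after 20 h as mean of two plates; 100% = untreated growth and lower means inhibition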
The depositor's hits bear a star; x = not tested or not shown; & = joins results of further samples.

canonical_smiles,GIV-Gai inh,HCMV NEC inh,Sa growth inh,Sa growth inh second temp
CCOc1cccc2cc(-c3nc4sc(C(=O)Nc5ccc(C)cc5)c(C)c4c(=O)[nH]3)c(=O)oc12,118,-5,106,106
CC1CN(CCC(=O)NN)CC(C)O1 (stereo not drawn),x,-5,92,99
O=c1onc(-c2cccc(Cl)c2Cl)n1-c1cccnc1,102,1,87,90
N/C(Cc1nc2ccccc2[nH]1)=N\O,x,-27,82,83
C=Cc1ccc(Cn2cc(C(=O)c3ccc(C)cc3)c(=O)c3ccc(C)nc32)cc1,124,-2,x,x
O=C(Nc1ccc(F)cc1)c1cnc(N2CCCC2)nc1,107,-24,x,x
COc1cccc(/C=N/N(CCO)C2=NS(=O)(=O)c3ccccc32)c1,111,-18,101,71
COc1cccc(C2C(C(=O)Nc3ccccc3)=C(C)Nc3nnnn32)c1OC (stereo not drawn),100,x,107,87
CC(=O)N(C)Cc1nc2ccccc2n1CC(=O)N(C)c1ccccc1,106,12,106,96
CCOC(=O)c1ccc(N2C(=O)c3n[nH]c(-c4ccco4)c3C2c2ccc(C)cc2)cc1 (stereo not drawn),103,-28,101,76
CC(=O)N1CCN(C(=O)CSc2ncnc3ccccc23)CC1,x,-26,92,91
CCC(=O)c1ccc(OC(=O)C2c3ccccc3Oc3ccccc32)cc1,102,x,86,77
CCN(C(=O)C1CCC1)c1nc2c(C)cccc2s1,x,-30,81,98
Cc1cccc(C)c1OCC(=O)Nc1ccc2c(c1)OCO2,x,-35,82,88
Cc1ccc(OCc2nc(-c3ccc(C(=O)NCCCN4CCN(Cc5ccccc5)CC4)cc3)oc2C)cc1,96,-11,103,88
COc1ccc2[nH]cc(CCNC(=O)c3ccco3)c2c1,x,-15,106,85
Cc1ccc(C2=CC(c3c(F)cccc3Cl)n3ncnc3N2)cc1C (stereo not drawn),98,x,115,83
COc1ccc(C(=O)N=c2sc3cc(Cl)ccc3n2C)cc1,102,-8,107,96
CCSc1nnc(-c2ccc(Cl)cc2)c2ccccc12,108,-8,x,x
COc1cc(O)ccc1-c1nc2ccc(Br)cn2c1Nc1ccccc1C,104,-23,119,92
c1ccc2c(CSc3nc4ccccc4s3)cccc2c1,x,0,81,128
COc1ccc(CC(=O)NCCS(=O)(=O)N2CCN(c3ccccc3F)CC2)cc1OC,105,x,108,87
CCCNC(=O)Nc1cccc(-c2noc(-c3ccccc3Cl)n2)c1,101,-10,x,x
COc1cc(-c2nnc(SCC(=O)Oc3ccccc3Cl)o2)cc(OC)c1OC,103,-26,97,84
COc1ccc(CCC(=O)NCCc2csc(-c3cccc(C)c3)n2)cc1,97,x,91,82

In the list so far, these contain a furan ring, fused or not:
canonical_smiles,GIV-Gai inh,HCMV NEC inh,Sa growth inh,Sa growth inh second temp
CCOC(=O)c1ccc(N2C(=O)c3n[nH]c(-c4ccco4)c3C2c2ccc(C)cc2)cc1 (stereo not drawn),103,-28,101,76
COc1ccc2[nH]cc(CCNC(=O)c3ccco3)c2c1,x,-15,106,85

Next part
canonical_smiles,GIV-Gai inh,HCMV NEC inh,Sa growth inh,Sa growth inh second temp
Cc1ccc2c(c1)OCC(CC(=O)O)N2 (stereo not drawn),104,-17,x,x
CC1CCc2c(sc3nc(-c4cc5ccccc5oc4=O)[nH]c(=O)c23)C1 (stereo not drawn),136,x,94,85
O=c1c2cccc3c2c(nn1CN1CCOCC1)-c1ccccc1-3,109,-57,117,96
CCC(CO)Nc1ncnc2sc3c(c12)CCCC3 (stereo not drawn),x,-1,93,98
Cc1noc(C)c1CSc1nc(-c2ccccc2)c(-c2ccccc2)n1CC1CCCO1 (stereo not drawn),x,15,103,103
CC1(C)C(=O)C2(CCCCC2)C(=O)OC1C(=O)c1ccccc1 (stereo not drawn),101,x,111,84
COCCn1c(SCC(=O)Nc2sc(C)c(C)c2C#N)nnc1C(C)C,104,-14,114,88
COc1ccc(-c2nc3scc(CCNS(=O)(=O)c4ccccc4F)n3n2)cc1,98,x,107,83
O=C(CCCc1ccccc1)Nc1ccc2c(c1)OCCO2,x,6,92,93
CCN(Cc1ccccc1)S(=O)(=O)c1ccc(F)c(C(=O)Nc2cc(C)ccc2OC)c1,105,x,86,98
Cn1c(Cn2c3ccccc3c3ccccc32)nnc1SCC(=O)O,100,-11,113,94
CCN1CCN(c2nc3ncn(CC(=O)Nc4ccc5c(c4)OCCO5)c(=O)c3s2)CC1,107,-27,x,x
O=C(c1ccc(-c2noc(C3CC3)n2)cc1)N1CCN(c2nc3ncccc3o2)CC1,102,-21,x,x
CSc1nc(/N=C/N(C)C)n2nc(-c3ccccc3)cc2n1,104,-5,92,89
CC(C)c1ccc(N(C(=O)c2ccccc2)C2C=CS(=O)(=O)C2)cc1 (stereo not drawn),99,x,88,93
CC(=O)NC(C)c1nc(-c2ccccc2)no1 (stereo not drawn),99&100,-21&-1,81,84
CCC1CCC2(CC1)NC(CO)(CO)CO2 (stereo not drawn),99,-13,98,97
O=C(NCCN1CCOCC1)c1ccc(-n2cccn2)cc1,108,-5,107,84
COc1ccc(-c2nc3ccccc3n3c(-c4ccccc4)c4c(=O)n(C)c(=O)n(C)c4c23)cc1,97,-42,100,89
O=C(NC1CCCCC1)c1cn(-c2ccccc2)cn1,107,-13,x,x
COc1ccc(C(=O)Cn2ccnc2C(=O)N2CCN(c3ccccn3)CC2)cc1,106,x,85,82
COc1ccc(C2Nc3ccccc3C(=O)N2c2ccccc2)cc1CSc1nc2ccccc2s1 (stereo not drawn),103,-17,x,x
CC(C)Nc1nc(-c2ccccc2O)nc2ccccc12,x,55*,107,86
Cc1ccccc1NC(=O)CSCc1cc(=O)n2ccccc2n1,103,-38,x,x
CC(C)CNC(=O)c1cc(-c2ccc(Cl)cc2)on1,103,x,95,89
CCC1CCCCN1Cc1nc2c(c(=O)n(C)c(=O)n2C)n1CC (stereo not drawn),103,6,x,x
COc1ccc(CN2CCSCC2)cc1Br,107,2,107,84
NC(=O)C1CCN(c2ccc(S(=O)(=O)N3CCCCC3)cn2)CC1,x,-4,90,91
NC(=O)COC(=O)c1ccccc1Br,x,-4,85,95
CN1CCN(c2cc(C(=O)c3ccccc3O)cn3c(=O)c4ccccc4nc23)CC1,x,-125,132,84
CC(C)C(Nc1ccc(C(F)(F)F)cc1Cl)C(=O)O (stereo not drawn),x,-12,91,94
Cc1ccc(C)c(N2CCN(c3cc4c(nn3)Oc3ccccc3N4C)CC2)c1,110,-3,97,94
CC(C)(C)c1ccc(C(=O)NCC(c2ccco2)S(=O)(=O)c2ccc(F)cc2)cc1 (stereo not drawn),105,x,117,96
O=C1/C(=C/c2ccc3c(c2)OCCO3)COc2ccccc21,x,-1,98,64
COc1ccccc1C(=O)N1CCN(c2ncnc3c2c(-c2ccccc2)cn3-c2ccccc2)CC1,106,3,x,x
O=C1CC(c2ccccc2)N=C(SCC(=O)NC2CCCCC2)N1 (stereo not drawn),94,-19,112,92
CN(C)S(=O)(=O)n1cc(/C=C(\NC(=O)c2ccccc2F)C(=O)NCCCn2ccnc2)c2ccccc21,105,-39,98,85
Cc1cc(C)n(-c2ccc(C(=O)OCCN3C(=O)c4ccccc4C3=O)cc2)n1,x,6,99,100
CCNc1ccc2c(Cl)cc(=O)oc2c1,99,-89,112,94
COn1c(=O)c(-c2cccc(C(F)(F)F)c2)[n+]([O-])c2ccccc21,108,-109,93,95
COc1ccc(-c2nc(CN3CCN(C(=O)c4ccc(Br)cc4)CC3)c(C)o2)cc1,107,-23,x,x
CCOC(=O)C1=C(C)N=c2s/c(=C\c3cccc(OC(C)=O)c3)c(=O)n2C1c1ccccc1OC(C)C (stereo not drawn),106,4,x,x
NC(=S)NC1CC2C=CC1C2 (stereo not drawn),101,-15,97,89
Cc1ccc2c(c1)c1c(n2CC(O)CNCC2CCCO2)CCCC1 (stereo not drawn),107,1,79,98
Oc1ccc(CNc2ccccc2Cl)c2cccnc12,104,-2,122,101
CCOC(=O)C(C)Sc1nc2c(c(=O)[nH]c(=O)n2C)n1CC(O)COc1ccc(Cl)cc1 (stereo not drawn),100,-8,90,91
Cc1nn(CCCC(=O)NCc2ccccc2Cl)c(=O)c2c(-n3cccc3)n(-c3ccccc3)nc12,102,-21,x,x
CCOc1ccc2nc(SC(C)C(N)=O)[nH]c2c1 (stereo not drawn),x,-22,79,93
COc1cc(C2C3=C(CCCC3=O)OC3=C2C(=O)CCC3)cc(Br)c1O,104,12,98,101
COc1cc2c(cc1OC)C(c1ccc(C)cc1)CC(=O)N2 (stereo not drawn),104,-12,x,x

(further entries)
canonical_smiles,GIV-Gai inh,HCMV NEC inh,Sa growth inh,Sa growth inh second temp
COc1ccc(OC)c(C(=O)COc2ccccc2C#N)c1,x,-17,97,83
CC(C)c1ccc(S(=O)(=O)Nc2ccc3oc4c(c3c2)C(=O)CC(C)(C)C4)cc1,107,10,102,108
CCC(=O)NC(C)Cc1c[nH]c2ccccc12 (stereo not drawn),105,x,96,87
COc1ccc(/C=C/C(=O)OC2CCOC2=O)cc1OC (stereo not drawn),x,-52,96,59
O=C(CCC(=O)c1ccccc1)Nc1ccccc1F,107,12,104,101
CCN1C(=O)CCc2cc(NC(=O)CN3C(=O)c4ccccc4C3=O)ccc21,99,-5,x,x
COc1ccc(-c2cc(C(=O)NCc3ccc(C)cc3)c3cc(C(C)C)ccc3n2)cc1,99,x,111,79
c1ccc(-c2csc(-c3ccc(-c4csnn4)cc3)n2)cc1,97,-121,100,87
O=C(COc1ccc(-n2cnnn2)cc1)NCC(F)(F)F,x,-27,94,93
COc1ccc(C2c3c(-c4c(C)cc(C)cc4O)n[nH]c3C(=O)N2Cc2ccco2)cc1 (stereo not drawn),97,2,107,84
Cc1cccc(C)c1NC(=O)c1ccc2nc(CCc3ccccc3)oc2c1,102,x,95,92
Cc1ccc(Nc2cc(C(=O)NC3CCCC3)c3ccccc3n2)c(C)c1,102,-2,106,90
CCOC(=O)C1=C(C)N=c2s/c(=C\c3cc(OC)c(OC)cc3[N+](=O)[O-])c(=O)n2C1c1ccc(OC)c(OC)c1 (stereo not drawn),104,-28,x,x
CC(C)CCNC(=O)c1cc2oc3ccccc3c2n1C,113,3,105,96
O=C(NC1CC1)c1sccc1-c1ccccc1,x,-19,78,93
COc1cccc(CNC(=O)c2ccc(-n3c(=O)[nH]c4c([nH]c5ccc(OC)cc54)c3=O)cc2)c1,99,-33,x,x
O=C(C1CCN(c2nnc(-n3cccc3)s2)CC1)N1CCCCC1,105,x,100,88
Clc1ccc(Sc2c(-c3ccccc3)nc3ncccn23)cc1,102,x,98,92
Cc1oc2nc[nH]c(=O)c2c1C(=O)NCc1ccccc1,x,-30,98,84
FC(F)(F)C1(C(F)(F)F)N=C(c2ccccc2)OC(N2CCCCC2)=N1,101,x,113,90
Cc1nc2nc(-c3ccc(C(C)(C)C)cc3)nn2c(C)c1CC(=O)Nc1ccc(Br)cc1,99,6,x,x
CC1(C)CC(=O)C2=C(C1)OC(N)=C(C#N)C2c1ccc(OC(=O)c2ccccc2)cc1 (stereo not drawn),108,4,x,x
CCOc1ccccc1Nc1nnc(-c2cc3cc(OC)ccc3oc2=O)s1,134,x,118,73
N=C(N)SCCN,108,-10&-10&-10,x,x
COC(=O)c1sc2cccc(F)c2c1S(=O)(=O)N1CCN(c2ccc(F)cc2)CC1,98,x,94,87
COc1ccc2nc(SC(=O)c3ccccc3Cl)nc(C)c2c1,102,-24,x,x
CCn1c(C)cs/c1=N\C(=S)Nc1ccccc1C,99,-13,99,84
O=C1CCCc2nc(-c3ccc(O)cc3)ncc21,105,-24,x,x
O=C(NCCc1ccccn1)C1CCN(C(=O)c2ccc(F)cc2)CC1,x,-41,89,90
Cc1ccc(-c2cc(-c3ccco3)c(C#N)c(SCC(=O)Nc3ccc(Cl)c(Cl)c3)n2)cc1,104,-30,85,79
O=C(Cn1ccc(C(F)(F)F)n1)Nc1cccc(C(F)(F)F)c1,95,-28,77,82
COc1cccc(N2CCN(C(=O)c3cc4cc5cc(C)ccc5nc4s3)CC2)c1,100,x,83,90
COc1cccc(N(CC(=O)Nc2ccc(C)cc2)S(C)(=O)=O)c1,106,10,100,95
Cc1[nH]c(C)c(S(=O)(=O)N2CCc3ccccc3C2)c1C(=O)N1CCCC1,101,-16,x,x

Compound profiles (already shown).
Listed for Cc1ccc(-c2cc(-c3ccco3)c(C#N)c(SCC(=O)Nc3ccc(Cl)c(Cl)c3)n2)cc1 : GIV-Gai inh = 104; HCMV NEC inh = -30; Sa growth inh = 85; Sa growth inh second temp = 79
Listed for COc1cccc(N2CCN(C(=O)c3cc4cc5cc(C)ccc5nc4s3)CC2)c1 : GIV-Gai inh = 100; HCMV NEC inh = x; Sa growth inh = 83; Sa growth inh second temp = 90
Listed for O=C1CCCc2nc(-c3ccc(O)cc3)ncc21 : GIV-Gai inh = 105; HCMV NEC inh = -24; Sa growth inh = x; Sa growth inh second temp = x

Compounds were not picked by outcome, and some 0.85% of all compounds hit somewhere here.
